Compound activity as filed in PubChem.
MbtI inh: MbtI salicylate synthase inhibition; P9WFX0; purified MbtI enzyme, fluorescence intensity read-out; inhibition, %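 (about 17 µg/mL by stock and volumes)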; 0.89% of 100,000 active; AID 493033;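 active = above 50% in both replicates, above 80% if mildly self-fluorescent; inactive = the rest, strongly fluorescent compounds included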;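 also: 0% = mean of negative and 100% = mean of positive controls; one replicate is shown; some compounds called inactive have numbers as strong as hits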
Target sequence (P9WFX0 whole entry, looked up): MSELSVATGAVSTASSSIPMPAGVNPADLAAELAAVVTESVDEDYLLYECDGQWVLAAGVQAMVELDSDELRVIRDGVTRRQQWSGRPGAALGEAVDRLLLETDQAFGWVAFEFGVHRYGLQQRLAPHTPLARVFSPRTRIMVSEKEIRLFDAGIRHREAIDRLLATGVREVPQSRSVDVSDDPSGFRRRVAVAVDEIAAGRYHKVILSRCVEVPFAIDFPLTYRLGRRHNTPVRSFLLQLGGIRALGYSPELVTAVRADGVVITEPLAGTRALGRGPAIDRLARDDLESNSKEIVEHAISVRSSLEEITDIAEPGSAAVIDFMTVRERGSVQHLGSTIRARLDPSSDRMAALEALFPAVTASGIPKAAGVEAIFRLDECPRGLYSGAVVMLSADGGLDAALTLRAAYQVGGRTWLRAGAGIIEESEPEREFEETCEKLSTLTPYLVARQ
Mtb MenB inh: Mtb MenB enzyme inhibition; P9WNP5; MenB enzyme assay, absorbance read-out; some hits fall short of the stated cut; inhibition, %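 (about 12 µg/mL by stock and volumes)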; 0.43% of 100,000 active;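 active = mean of two replicates above 30%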;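 also: 0% = no compound and 100% = wells with inactive enzyme; the first replicate is given; strong numbers were not always called active; inactives centre near -10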
Target sequence (P9WNP5 whole entry, looked up): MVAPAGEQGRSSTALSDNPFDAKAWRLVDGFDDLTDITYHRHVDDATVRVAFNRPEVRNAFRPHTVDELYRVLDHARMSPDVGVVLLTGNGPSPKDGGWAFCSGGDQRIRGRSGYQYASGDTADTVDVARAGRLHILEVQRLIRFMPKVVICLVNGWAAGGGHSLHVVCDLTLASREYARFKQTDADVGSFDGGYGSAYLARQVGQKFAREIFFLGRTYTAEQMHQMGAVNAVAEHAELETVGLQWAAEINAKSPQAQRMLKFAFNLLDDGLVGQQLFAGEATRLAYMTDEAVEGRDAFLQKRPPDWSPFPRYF
PV pol inh: inhibitors of poliovirus RNA polymerase binding and polymerization. poliovirus polymerase elongation, fluorescence polarization; active compounds read low. 0.66% of 150,000 active. P03300. AID 588519. % elongation, % (compound at 16.7 µg/mL); in the data active = % elongation below about 90%; also: some results filed as inactive read as strong as hits
PV pol inh intensity: further read-out of PV pol inh, marked with its call; % elongation; measured here: total intensity read-out; formula for this scale not given here;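 total fluorescence in place of polarization; lower means less elongation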
Starred values were filed as active, the others as inactive; x = not tested or not shown; & = joins results of further samples.

# | SMILES | MbtI inh | Mtb MenB inh | PV pol inh | PV pol inh intensity
1 | Cc1ccc(S(=O)(=O)N2CCN(S(=O)(=O)c3cccs3)CC2)cc1 | -8 | 9 | 99 | 100
2 | O=C(OCCN1C(=O)c2ccccc2C1=O)c1c2c(nc3ccccc13)CCC2 | -19 | -21 | 103 | 108
3 | CC(O)c1ccc(N(C)C)c2c(N(C)C)cccc12 (stereo not drawn) | -13 | x | 102 | 103
4 | O=C(Nc1ccc(F)cc1)C1c2ccccc2Oc2ccccc21 | -13 | -15 | 103 | 108
5 | CN(C)c1ccc(NC(=O)COC(=O)C2=NNC(=O)CC2)cc1 | 8 | 7 | 99 | 95
6 | O=C(COC(=O)c1ccc(F)cc1Cl)c1ccc(Br)cc1 | -7 | x | 104 | 107
7 | COc1cccc(N2CCN(S(=O)(=O)c3ccc(CN4C(=O)c5cccnc5C4=O)s3)CC2)c1 | -10 | 8 | 103 | 104
8 | CCCCNC(=O)C1CCCN1S(=O)(=O)c1cccc2nsnc12 (stereo not drawn) | 6 | -4 | 100 | 101
9 | CSc1c(C#N)c(-c2ccccc2)nn1CC(=O)NN | -10 | 9 | 107 | 115
10 | O=C(NCCc1ccncc1)Nc1ccc(Cl)cc1 | x | -11 | 103 | 109
11 | Cc1cc(CSc2nnc(NC3CC3)s2)no1 | -1 | -36 | 103 | 105
12 | CC(C)Cn1cc(NC(=O)N(C)Cc2ccco2)c2ccccc2c1=O | -17 | -1 | 102 | 103
13 | Fc1ccc(N=C(CN2CCCCC2)N2CCCCC2)cc1 | -27 | -18 | 105 | 104
14 | CCOC(=O)N1CCC(N/C=C(\C#N)S(=O)(=O)c2ccc(Cl)cc2)CC1 | -9 | 4 | 102 | 95
15 | O=C(CN1C(=O)/C(=C/c2ccccc2F)Sc2ccccc21)NCc1ccc2c(c1)OCO2 | 2 | -32 | 103 | 103
16 | CCOC(=O)c1c(Cc2cccc(C)c2)c[nH]c1-c1ccccc1 | 96 | -25 | 103 | 108
17 | O=C(Nc1ccc(C(F)(F)F)cc1)c1ccc2c(c1)CCO2 | 5 | 2 | 104 | 100
18 | COc1ccc(NC(c2c[nH]c3ccccc23)P2(=S)OCC(C)(C)CO2)cc1 (stereo not drawn) | 1 | -13 | 101 | 102
19 | COC(=O)c1c(-c2c(Cl)cccc2Cl)noc1NC(=O)N(C)C | -4 | 3 | 108 | 111
20 | CCn1c(SCC(=O)NC(C)C)nnc1-c1ccco1 | 10 | -18 | 105 | 109
21 | COc1ccc2[nH]c(=O)c(CN(Cc3ccco3)C(c3nnnn3Cc3ccccc3)C(C)C)cc2c1 (stereo not drawn) | -91 | 21 | 101 | 105
22 | Cc1nc2ccc(N3NOC=C3O)cc2s1 | 1 | -8 | 71 | 198
23 | O=C1C2CCC1C(N1CCCC1)CC2 (stereo not drawn) | -5 | -3 | 103 | 102
24 | Cc1nc2sccn2c(=O)c1S(=O)(=O)Nc1ccccc1 | -8 | -1 | 102 | 103
25 | CN(C)c1ccc(/C=C/CN2CCC(O)CC2)cc1 | -278 | -30 | 101 | 101

Additional records.
# | SMILES | MbtI inh | Mtb MenB inh | PV pol inh | PV pol inh intensity
26 | CCCCNC(=O)C1CCN(S(=O)(=O)CC)CC1 | -21 | -15 | 100 | 104
27 | O=C(c1nc2ccccc2[nH]1)N1CCOCC1 | x | -10 | 103 | 110
28 | Cc1cc(NC(=O)C(C)SCC(=O)O)no1 (stereo not drawn) | -6 | 15 | 102 | 110
29 | COc1ccc(C2NS(=O)(=O)N=C2N)cc1 (stereo not drawn) | -14 | 0 | 99 | 102
30 | CCOC(=O)/C(C#N)=C/c1cc(C(=O)OCC)c(N)s1 | 0 | -29 | 44 | 236
31 | Cc1[nH]c2ccccc2c1C1=CCN(S(=O)(=O)c2cccc3nsnc23)CC1 | 5 | -3 | 100 | 102
32 | N#Cc1ccc(/C=N/NC(=S)Nc2ccc(S(=O)(=O)N3CCOCC3)cc2)cc1 | 0 | -9 | 104 | 92
33 | Cc1ccc(-c2csc(=Nc3ccccc3)n2CCCN(C)C)cc1 | 5 | -19 | 104 | 107
34 | CC1CC(C)CN(C(=O)NC2(C(F)(F)F)Oc3ccc(Cl)cc3O2)C1 (stereo not drawn) | 42 | -22 | 102 | 101
35 | C(=Nc1ccc2ccccc2c1)Nc1ccc2ccccc2c1 | -1 | 7 | 106 | 100
36 | COC1OC(C)C(OCc2ccccc2)C(O)C1O (stereo not drawn) | x | -15 | 110 | 108
37 | Cc1ccc(-c2n[nH]c(=S)c3ccccc23)cc1S(=O)(=O)NCc1cccnc1 | -8 | -43 | 101 | 108
38 | CC(C)Cc1nc2ccc(N)cc2[nH]1 | 38 | 2 | 100 | 101
39 | O=C(Nc1ccccc1C(=O)NC1CCS(=O)(=O)C1)C1=CSCCO1 (stereo not drawn) | -2 | 7 | 101 | 103
40 | CCN(c1ccccc1)c1ncnc(N)n1 | -13 | -3 | 101 | 103
41 | O=C1C2CCCC1C(c1ccc3c(c1)OCO3)NC2c1ccc2c(c1)OCO2 (stereo not drawn) | -5 | 9 | 102 | 104
42 | c1csc(Nc2nc3cc4c(cc3s2)OCO4)n1 | 3 | -32 | 87 | 185
43 | COc1ccc2nc(N(CCN(C)C)C(=O)C3CCCCC3)sc2c1 | -1 | -33 | 102 | 99
44 | COC(=O)C1=C(CSc2nc(C)cc(C)n2)NC(=O)NC1c1ccc(F)cc1 (stereo not drawn) | -7 | -18 | 102 | 109
45 | Cc1cccc(C(=O)N(CC#N)CC#N)c1 | x | 8 | 102 | 107
46 | CCN(CC)C(=O)c1ccc(C(=O)c2ccccc2)o1 | x | -13 | 104 | 109
47 | Cc1ccc(NC(=O)Nc2c(C)noc2-c2cccs2)cc1 | -1 | -13 | 102 | 103
48 | COc1ccc(C2=NN(C(=O)COc3ccc(-c4nnco4)cc3)C(c3ccco3)C2)cc1 (stereo not drawn) | -16 | -29 | 108 | 100
49 | CC(=O)N1CCOc2cc(S(=O)(=O)NCCN(C)C)c(Cl)cc21 | -8 | -16 | 107 | 100
50 | O=C(CCCc1nc2ccccc2c(=O)[nH]1)Nc1ccccc1N1CCOCC1 | 1 | -2 | x | x

Remaining list, next part
# | SMILES | MbtI inh | Mtb MenB inh | PV pol inh | PV pol inh intensity
51 | CC1CCN(C(=O)c2cc(N(C)S(=O)(=O)c3ccccc3)ccn2)CC1 | -5 | 7 | 101 | 102
52 | NC(=O)n1c(CCC(=O)O)nc2sc3c(c2c1=O)CCC3 | 21 | -28 | 85* | 92*
53 | c1ccc2c3c([nH]c2c1)-c1nonc1CC3 | -130 | -6 | 101 | 103
54 | Cc1cc(-c2cc(N)n(-c3ccccc3)n2)c(C)n1C1CCCC1 | -4 | x | 101 | 95
55 | CCn1cc(C(=O)NCc2cccnc2)c(=O)c2cc(S(=O)(=O)N3CCCC3)ccc21 | -2 | -9 | 102 | 103
56 | COc1ccc(-c2nnc(SCC(=O)N3CC(=O)Nc4ccccc43)o2)cc1OC | -8 | -37 | 107 | 106
57 | CCOc1nc2cnccc2n(Cc2ccccc2C#N)c1=O | 11 | -4 | 99 | 103
58 | CC(C)=NNC(=O)c1ccccc1 | -14 | -32 | 104 | 104
59 | CCN(/C=C1\SC(=S)N(c2ccc(OC)cc2)C1=O)CC | x | -24 | 123 | 131
60 | CCS(=O)(=O)N1CCN(c2nc(C)nc3sc4c(c23)CCC(C)C4)CC1 (stereo not drawn) | 7 | -6 | 100 | 102
61 | O=C(CC(CC(=O)c1ccccc1)c1cccc2ccccc12)c1ccccc1 | -11 | -16 | 103 | 110
62 | COCc1cc(C)nc2sc(C(N)=O)c(N)c12 | 13 | -34 | 103 | 105
63 | Oc1ccc(Cn2nc(-c3ccc(O)cc3)c3ccccc32)cc1 | x | -1 | 102 | 102
64 | CCN(CC)c1ccc(NC(=O)CSc2cccc[n+]2[O-])cc1 | 9 | x | 101 | 102
65 | O=C(CC(=O)c1ccccc1)Nc1ccccc1 | 10 | -43 | 97 | 101
66 | Cc1ccccc1OCC(=O)OC1CCCN(C)C1 (stereo not drawn) | -11 | -37 | 106 | 103
67 | CC1(C)CC(NS(C)(=O)=O)CC(C)(C)N1O | x | -4 | 102 | 106
68 | O=c1ccn2c(SCc3ccccc3)nnc2[nH]1 | 5 | -8 | 104 | 107
69 | CCN1CCN(C(=Nc2ccccc2)P(=S)(N(C)C)N2CCN(CC)CC2)CC1 (stereo not drawn) | 4 | 7 | 101 | 107
70 | CC(=O)N/C(=C\c1ccc(Cl)cc1)C(=O)NCc1ccccc1 | 2 | x | 103 | 105
71 | O=S(=O)(NC12CC3CC(CC(C3)C1)C2)c1cccc(C(F)(F)F)c1 | -28 | -32 | 102 | 103
72 | O=C(CN1C(=O)CSC1=O)N1CCCC1 | -18 | -3 | 102 | 105
73 | Cc1c(Cl)cccc1NC(=O)CCCN1C(=O)CCC1=O | 4 | -8 | 100 | 104
74 | CNc1nc2c([nH]1)c(=O)n(C)c(=O)n2C | 6 | 11 | 103 | 102
75 | CC(C)[C@H](NC(=O)c1ccco1)C(=O)N(C)Cc1c(F)cccc1Cl | 6 | -23 | x | x

The results go on.
# | SMILES | MbtI inh | Mtb MenB inh | PV pol inh | PV pol inh intensity
76 | C=CCN=c1scc(-c2ccco2)n1/N=C/c1ccc(C(=O)OC)cc1 | 4 | 11 | 127 | 128
77 | O=C(c1ccc(S(=O)(=O)Nc2ccccc2Cl)cc1)N1CCCC1 | -8 | x | 102 | 101
78 | O=C(CSc1nnc(-c2ccco2)n1-c1ccccc1)NC(=O)c1ccccc1 | 1 | -7 | 100 | 97
79 | COc1ccc2nc(NC(=O)c3ccccc3NS(=O)(=O)c3cccs3)sc2c1 | 102 | -67 | 95 | 100
80 | O=C1Nc2ccccc2C1=Nc1cccc(C(F)(F)F)c1 | x | -53 | 88* | 90*
81 | CN1CCC(N(C)CC(O)COCc2ccccc2Cl)CC1 (stereo not drawn) | 2 | -9 | 91 | 89
82 | O=C1c2ccccc2-c2nnc(-c3cccc(OC(F)(F)F)c3)cc21 | -4 | -27 | 103 | 106
83 | COCCN1C(=O)/C(=C/c2cc(OC)c(O)cc2Br)SC1=S | -12 | -56 | 115 | 148
84 | CC1(C)CC(c2ccccc2)(C(CO)CNCc2ccccc2)CCO1 (stereo not drawn) | x | -5 | 98 | 102
85 | Cc1cc(C)nc(SCc2cc(=O)c(OC(=O)c3c(-c4ccccc4Cl)noc3C)co2)n1 | 11 | -1 | 100 | 100
86 | CCN(CC)CCN1C(=O)C(O)=C(C(=O)c2sc(C)nc2C)C1c1ccccn1 (stereo not drawn) | 13 | -18 | 100 | 99
87 | Cc1nnc(NC(=O)C2CCCN(c3ncccn3)C2)s1 (stereo not drawn) | 26 | 27 | 99 | 101
88 | O=C(CSc1ncc(CO)n1Cc1ccc(Cl)cc1)NC1CCCCC1 | -13 | -9 | 101 | 104
89 | CCC(=O)Nc1ccc2nc(SCc3ccc(F)c4ccccc34)sc2c1 | 3 | -30 | 104 | 106
90 | O=C(NCn1nc(-c2ccccc2)nc1-c1ccccc1)c1cccnc1 | -11 | 0 | 103 | 102
91 | CC(C(=O)O)c1cccc(Oc2ccccc2)c1 (stereo not drawn) | -5&-4 | 2&-3 | 100&100 | 101&100
92 | O=C(COC(=O)c1ccccc1)c1ccc(-c2ccccc2)cc1 | -2 | x | 102 | 97
93 | CCC(C)NC(=O)C1CCC(=O)N(c2cc(OC)c(OC)c(OC)c2)C1c1ccc(OC)cc1 (stereo not drawn) | -6 | -17 | 96 | 94
94 | N#Cc1ccc(COn2nnc3ccccc32)cc1 | 2 | x | 105 | 97

Entries shown so far with fluorine, in the order listed:
# | SMILES | MbtI inh | Mtb MenB inh | PV pol inh | PV pol inh intensity
4 | O=C(Nc1ccc(F)cc1)C1c2ccccc2Oc2ccccc21 | -13 | -15 | 103 | 108
6 | O=C(COC(=O)c1ccc(F)cc1Cl)c1ccc(Br)cc1 | -7 | x | 104 | 107
13 | Fc1ccc(N=C(CN2CCCCC2)N2CCCCC2)cc1 | -27 | -18 | 105 | 104
15 | O=C(CN1C(=O)/C(=C/c2ccccc2F)Sc2ccccc21)NCc1ccc2c(c1)OCO2 | 2 | -32 | 103 | 103
17 | O=C(Nc1ccc(C(F)(F)F)cc1)c1ccc2c(c1)CCO2 | 5 | 2 | 104 | 100
34 | CC1CC(C)CN(C(=O)NC2(C(F)(F)F)Oc3ccc(Cl)cc3O2)C1 (stereo not drawn) | 42 | -22 | 102 | 101
44 | COC(=O)C1=C(CSc2nc(C)cc(C)n2)NC(=O)NC1c1ccc(F)cc1 (stereo not drawn) | -7 | -18 | 102 | 109
71 | O=S(=O)(NC12CC3CC(CC(C3)C1)C2)c1cccc(C(F)(F)F)c1 | -28 | -32 | 102 | 103
75 | CC(C)[C@H](NC(=O)c1ccco1)C(=O)N(C)Cc1c(F)cccc1Cl | 6 | -23 | x | x
80 | O=C1Nc2ccccc2C1=Nc1cccc(C(F)(F)F)c1 | x | -53 | 88* | 90*
82 | O=C1c2ccccc2-c2nnc(-c3cccc(OC(F)(F)F)c3)cc21 | -4 | -27 | 103 | 106
89 | CCC(=O)Nc1ccc2nc(SCc3ccc(F)c4ccccc34)sc2c1 | 3 | -30 | 104 | 106
